Menin MLL FP FL = menin-MLL binding inhibition, fluorescein peptide. Fluorescence polarization, fluorescein-MLL peptide displacement from menin. FP activity change, % at 61.4 µM. 290,000 tested, under 10 active. AID 1766; inconclusive = falling polarisation curve, or a change in total fluorescence; inactive = total fluorescence flat and polarisation flat or rising; no compound was filed as active; the % refers to the polarisation; negative = inhibition;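 further: % of control where 0% means no effect; inhibitors lower the polarisation; unlabelled MLL peptide was the positive control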
TRPV1 PAM = human TRPV1 potentiation; Q8NER1; AID 540277; potentiation, % at 8.33 µM; 320,000 compounds, 0.02% hits; TRPV1-expressing cells, Fluo-8 calcium influx, capsaicin EC20 potentiation; host cell line not named in the record; control for the full effect not named in the record; active means potentiation above 80%; inconclusive means 30% to 80%; inactive means below 30%; further: 0% is about no effect
Target sequence (Q8NER1 whole entry, looked up): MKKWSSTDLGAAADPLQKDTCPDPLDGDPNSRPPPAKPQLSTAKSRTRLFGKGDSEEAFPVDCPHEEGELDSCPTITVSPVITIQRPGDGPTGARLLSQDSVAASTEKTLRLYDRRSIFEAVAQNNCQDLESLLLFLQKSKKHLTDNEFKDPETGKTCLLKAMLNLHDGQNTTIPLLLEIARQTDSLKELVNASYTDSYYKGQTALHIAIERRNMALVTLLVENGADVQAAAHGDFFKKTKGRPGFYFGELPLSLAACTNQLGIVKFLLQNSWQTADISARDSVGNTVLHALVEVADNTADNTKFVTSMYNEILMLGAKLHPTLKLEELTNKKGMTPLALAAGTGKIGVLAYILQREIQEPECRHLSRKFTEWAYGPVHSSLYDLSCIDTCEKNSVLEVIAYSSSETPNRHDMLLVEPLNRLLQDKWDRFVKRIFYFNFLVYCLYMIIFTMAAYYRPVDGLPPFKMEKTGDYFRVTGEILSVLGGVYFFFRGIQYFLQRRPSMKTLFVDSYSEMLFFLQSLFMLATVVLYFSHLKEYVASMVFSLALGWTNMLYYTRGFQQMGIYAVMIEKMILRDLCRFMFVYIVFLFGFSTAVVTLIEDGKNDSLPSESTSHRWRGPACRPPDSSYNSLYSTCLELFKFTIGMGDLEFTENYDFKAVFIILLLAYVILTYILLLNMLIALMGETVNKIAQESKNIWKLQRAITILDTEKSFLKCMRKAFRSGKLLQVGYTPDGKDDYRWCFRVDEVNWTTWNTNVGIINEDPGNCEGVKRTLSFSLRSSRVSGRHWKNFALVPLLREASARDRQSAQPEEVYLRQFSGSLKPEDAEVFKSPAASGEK
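Fluo-8 calcium influx in TRPV1-expressing cells, kinetic read (ex 480/em 520 nm). Compound added and read 3 min for agonist activity, followed by capsaicin at EC20 final and 2 min further read for enhancement.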
TRPML1 blocker = blocks the human TRPML1 channel; AID 624415; activity change, negative = inhibition, % (no concentration beside the values); Q9GZU1; TRPML1-inducible cells, Ca2+ dye fluorescence, FDSS; active compounds read low; inhibition of EC80 agonist-evoked calcium signal; 390,000 compounds, 0.02% hits; in the data active means activity change below about -50%; inconclusive means about -30% to -50%; inactive means above about -30%;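 further: stimulus is agonist 54-4 at its EC80 concentration; on the % scale 0 is the no-effect control and ±100 the full control effect; compound concentration not given in the record; the text of the record puts the active cut at -80%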
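Calcium fluorescence in TRPML1-DL cells induced overnight with Tet: a 110 s read after compound pin addition, then a 110 s antagonist read after challenge with 54-4 at 4 uM final (EC80).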
Sfp PPTase inh = Sfp phosphopantetheinyl transferase inhibition | 310,000 compounds, 3.5% hits | Biochemical Sfp PPTase activity, qHTS | Q9F4F7 | Potency, µM, inactives show max response, negative = inhibition, most hits filed as inhibitors | AID 1490; active means well fitted inhibition curve with a large enough effect; inconclusive means small, poorly fitted or top-dose-only effect, or another doubt; inactive means no such curve, though single readings can be large or run the other way;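 further: the enzyme is Sfp with the accession as filed and its product quenches rhodamine fluorescence; potency means the concentration at half of the fitted maximal effect; 0% = enzyme reaction without inhibitor and -100% = no enzyme wells; top concentration of the series not given in the record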
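After 15 min at room temperature with compound, 15 nM Sfp received 5 uM rhodamine-CoA plus 12.5 uM BHQ-2-ybbR (50 mM Hepes pH 7.6, 10 mM MgCl2). Rate came from the fluorescence difference over 30 min, ex 525/em 598 nm.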
PINK1 modulator = changes PINK1 expression; PINK1 immunofluorescence, high-content cytometry, 24 h; Potency, µM (series often up to 76.6 µM), without a hit: at the top dose activation (PINK1 increase), usual class: activators; 410,000 compounds, 0.2% hits; active = well fitted activation curve with a large enough effect; inconclusive = small, poorly fitted or top-dose-only effect; inactive = flat fitted curve, though single readings scatter; cell line not stated here;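 further: potency means the concentration at half of the fitted maximal effect; % of control where 0% means no effect; nearly all actives have a fitted effect of over 65% in size; a mitochondrial uncoupler was the plate control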
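Fluorescence from anti-PINK1 antibody, together with nuclear and cell stains, was scanned on a laser-scanning cytometer. Before staining, stable-line cells were incubated 24 hours with compounds at 5 concentrations; primary antibody 12 h at 10 degrees C.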
TRPML1 ag = human mucolipin-1 channel agonism; Q9GZU1; TRPML1-expressing cells, Ca2+ dye fluorescence, FDSS; host cell line not named in the record; reference of the full effect not given here; activation, % (no concentration beside the values); 410,000 compounds, 0.12% hits; AID 624414; in the data active = activation above about 50%; inconclusive = about 30% to 50%; inactive = below about 30%; further: 0% is about no effect; the text of the record puts the active cut at 80%
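Calcium fluorescence on an FDSS kinetic reader gave the read-out. Tet-induced TRPML1-DL cells were plated overnight, dye-loaded (Ca8 with quencher, 45-90 min, room temperature, dark), then read 110 s after compound addition, and again 110 s after 4uM final 54-4 (EC80).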
ClpP mod = qHTS Assay for Activators of ClpP | AID 651965, 2013 | Potency, µM (top dose mostly 57.5 µM), for the others: top-dose activity change, negative = active | 340,000 compounds, 1.9% hits | purified B. subtilis ClpP, FRET peptide cleavage, 20 min; active = well fitted falling curve with a large enough effect; inconclusive = small, poorly fitted or top-dose-only effect; inactive = no such curve, though single readings can be large or run the other way; further: potency means the concentration at half of the fitted maximal effect; the source files actives as falling curves though it sought activators and does not explain the sign; nearly all actives have a fitted effect of over 65% in size; many hits overshoot -100%
Target sequence (P80244 whole entry, looked up): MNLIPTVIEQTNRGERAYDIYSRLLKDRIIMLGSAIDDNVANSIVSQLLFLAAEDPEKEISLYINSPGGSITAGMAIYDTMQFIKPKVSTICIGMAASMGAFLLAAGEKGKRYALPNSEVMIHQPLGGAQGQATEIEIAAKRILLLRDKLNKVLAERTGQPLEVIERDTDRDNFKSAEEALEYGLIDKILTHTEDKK
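Buffer: 100 mM Tris/HCl pH8, 100 mM KCl, 0.05% low protease BSA, 2.5% glycerol, 0.01% Tween-20. ClpP 10 microg/mL final; 20 min RT; delta FRET normalized to ADEP and DMSO controls.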
Starred values were filed as active, the others as inactive; & = joins results of further samples; [ ] = dose if it differs, or a comment.

How did NC(=O)C(NC(=O)OCc1ccccc1)c1ccccc1 (configuration not stated) do in these assays?
TRPV1 PAM: -28.3; TRPML1 blocker: -0.2; PINK1 modulator: 1.6%; TRPML1 ag: -0.4; ClpP mod: 0.2%

Results for Cc1ccc(S(=O)(=O)N2CCN(S(=O)(=O)c3ccccc3)C2c2ccc(N(C)C)cc2)cc1 (configuration not stated) ?
Menin MLL FP FL: 1.6; TRPV1 PAM: 14.6; TRPML1 blocker: -14.5; Sfp PPTase inh: 2.3%; PINK1 modulator: -0.9%; TRPML1 ag: 0.3; ClpP mod: -3.0%

Results for O=C(NCc1ccc(N2CCCC2=O)cc1)Nc1cccc2ccccc12 ?
Menin MLL FP FL: 0.4; TRPV1 PAM: 18.4; TRPML1 blocker: 5.3; Sfp PPTase inh: -1.5%; PINK1 modulator: -2.0%; TRPML1 ag: 3.0; ClpP mod: inconclusive

Results for COc1ccccc1N(CC(=O)Nc1cc(S(=O)(=O)N(C)C)ccc1C)S(=O)(=O)c1cccs1 ?
TRPML1 blocker: -12.5; PINK1 modulator: 0.0%; TRPML1 ag: 0.3; ClpP mod: 0.0%

What do the screens show for `CCn1c(COc2ccc(=O)n(-c3ccccc3)n2)nnc1SCc1cccc(OC)c1`?
Menin MLL FP FL: 4.4; TRPV1 PAM: 4.9; TRPML1 blocker: 6.0; Sfp PPTase inh: 14.4%; PINK1 modulator: -4.4%; TRPML1 ag: -1.0; ClpP mod: -0.3%

What do the screens show for `O=S(=O)(Nc1ccc(-c2ccc(N3CCOCC3)nn2)cc1)c1ccc(Cl)c(Cl)c1`?
TRPV1 PAM: -0.9; TRPML1 blocker: -12.8; PINK1 modulator: 0.3%; TRPML1 ag: inconclusive

Results for N/C(=N\OC(=O)COc1ccc2ccccc2c1)c1ccccn1 ?
Menin MLL FP FL: 2.0; TRPV1 PAM: 2.9; TRPML1 blocker: -4.1; Sfp PPTase inh: 89.1µM*; PINK1 modulator: 4.9%[38.3 µM]; TRPML1 ag: 1.5; ClpP mod: -0.2%

How did COc1ccc(S(=O)(=O)NC2CCN(Cc3ccccc3)CC2)cc1NC(C)=O do in these assays?
TRPV1 PAM: 7.0; TRPML1 blocker: 4.9; PINK1 modulator: -0.1%; TRPML1 ag: -0.4; ClpP mod: -0.2%

What do the screens show for `COCCN1C(=O)CCC1(C)c1nnnn1-c1ccc2c(c1)OCCO2` (configuration not stated)?
PINK1 modulator: 1.1%; TRPML1 ag: -0.6; ClpP mod: 0.6%

How did CCn1c(SCC(=O)N/N=C/c2ccccc2OCC(=O)O)nnc1-c1ccc(OC)cc1 do in these assays?
Menin MLL FP FL: 0.6; TRPV1 PAM: -10.3; TRPML1 blocker: 10.1; Sfp PPTase inh: -1.9%; PINK1 modulator: 0.2%; TRPML1 ag: 1.7

How did COCCn1c(SCC(=O)N2CC(=O)Nc3ccccc32)nnc1-c1ccoc1C do in these assays?
Menin MLL FP FL: -0.7; TRPV1 PAM: 8.2; TRPML1 blocker: 23.7; Sfp PPTase inh: 11.8%; PINK1 modulator: -2.4%; TRPML1 ag: 0.5; ClpP mod: -0.7%

How did COc1ccc(CNC(=O)C(C)n2ccc3cc(S(=O)(=O)N4CCCCCC4)ccc32)cc1 (configuration not stated) do in these assays?
Menin MLL FP FL: 0.3; TRPV1 PAM: 4.0; TRPML1 blocker: 70.3; Sfp PPTase inh: -1.5%; PINK1 modulator: -1.5%; TRPML1 ag: 0.8; ClpP mod: -6.5%

Results for COC(=O)C(C)Sc1ncnc2c1c(-c1ccccc1)cn2-c1ccc(OC)cc1 (configuration not stated) ?
Menin MLL FP FL: 0.9; TRPV1 PAM: -0.4; TRPML1 blocker: 8.3; Sfp PPTase inh: 0.3%; PINK1 modulator: 0.0%; TRPML1 ag: 0.6; ClpP mod: inconclusive

What do the screens show for `CCOc1cc(NS(=O)(=O)c2ccccc2)c(OCC)cc1NC(=O)c1ccco1`?
Menin MLL FP FL: 5.7; TRPV1 PAM: 7.5; TRPML1 blocker: 41.9; Sfp PPTase inh: -12.2%; PINK1 modulator: -3.2%; TRPML1 ag: 1.8; ClpP mod: -0.1%

Results for O=C1Nc2cc(Cl)c(Cl)cc2N(O)N1c1ccc(Cl)c(Cl)c1 ?
Menin MLL FP FL: 3.0; TRPV1 PAM: -3.4; TRPML1 blocker: 2.2; Sfp PPTase inh: 6.4%; PINK1 modulator: -5.5%[38.3 µM]; TRPML1 ag: 0.3; ClpP mod: -0.8%

Results for Cc1ccc(C(=O)Cc2ccccc2)o1 ?
TRPV1 PAM: -1.7; TRPML1 blocker: 0.9; PINK1 modulator: 2.5%; TRPML1 ag: -1.1; ClpP mod: 0.3%

What do the screens show for `CCOc1ccc(NS(=O)(=O)c2ccc(C(=O)N3CCN(C(C)=O)CC3)cc2)cc1`?
TRPV1 PAM: -15.3; TRPML1 blocker: -11.6; Sfp PPTase inh: 8.0%; PINK1 modulator: -1.1%; TRPML1 ag: 2.5; ClpP mod: 0.6%

What do the screens show for `Cc1cc([N+](=O)[O-])ccc1NC(=O)CN1CCN(Cc2ccccc2)CC1`?
Menin MLL FP FL: -6.9; TRPV1 PAM: -4.6; TRPML1 blocker: 31.6; Sfp PPTase inh: 16.0%; PINK1 modulator: 0.6%; TRPML1 ag: 0.1; ClpP mod: -1.6%

Results for Fc1ccc(NC(=S)NC2CCN(Cc3ccccc3)CC2)cc1 ?
Menin MLL FP FL: -4.9; TRPV1 PAM: -7.3; TRPML1 blocker: -0.5; Sfp PPTase inh: 21.4%; PINK1 modulator: -1.9%; TRPML1 ag: -0.8; ClpP mod: 0.3%

What do the screens show for `CCOC(=O)c1cc(NC(=O)c2cccnc2)ccc1N1CCOCC1`?
Menin MLL FP FL: -1.6; TRPV1 PAM: -14.0; TRPML1 blocker: -6.1; Sfp PPTase inh: 7.4%; PINK1 modulator: 0.6%; TRPML1 ag: -0.5

How did NC(=O)c1ccc(NC(=O)C2CCCC2)cc1 do in these assays?
Menin MLL FP FL: -1.2; TRPV1 PAM: -10.8; TRPML1 blocker: -8.1; Sfp PPTase inh: 6.5%; PINK1 modulator: 3.2%; TRPML1 ag: 0.3; ClpP mod: 1.3%

Results for CC(=O)N1CCN(CC(=O)c2ccc(Br)cc2)CC1 ?
Menin MLL FP FL: -0.2; TRPV1 PAM: -9.6; TRPML1 blocker: -7.3; Sfp PPTase inh: -4.0%; PINK1 modulator: -1.9%; TRPML1 ag: -0.3; ClpP mod: 1.4%

Results for CC(=O)N[C@H]1[C@H](OCc2ccccc2F)O[C@H](COC(C)=O)[C@@H](OC(C)=O)[C@@H]1OC(C)=O ?
Menin MLL FP FL: 5.1; TRPV1 PAM: -2.5; TRPML1 blocker: 9.8; Sfp PPTase inh: 10.1%; PINK1 modulator: 2.6%; TRPML1 ag: 0.6

How did Cc1cc(C)n(-c2nc(NCCO)c3c4c(sc3n2)CCCC4)n1 do in these assays?
Menin MLL FP FL: 4.1; TRPV1 PAM: -16.0; TRPML1 blocker: 4.2; Sfp PPTase inh: -0.3%; PINK1 modulator: -0.1%; TRPML1 ag: 2.3; ClpP mod: -22.5%

How did COc1cc(/C=N/n2nnnc2N)ccc1O do in these assays?
Menin MLL FP FL: 0.7; TRPV1 PAM: 1.8; TRPML1 blocker: -8.3; Sfp PPTase inh: -2.2%; PINK1 modulator: -1.3%; TRPML1 ag: -0.7; ClpP mod: -13.2%

How did CC(=O)Nc1ccc(N(C)S(C)(=O)=O)cc1 do in these assays?
Menin MLL FP FL: 0.3; TRPV1 PAM: -0.6; TRPML1 blocker: -4.4; Sfp PPTase inh: -2.7%; PINK1 modulator: 7.2%; TRPML1 ag: 0.1; ClpP mod: -2.6%

What do the screens show for `CCCCNC(=O)C1(C)CCCCN1C(=O)c1cncc(Br)c1` (configuration not stated)?
PINK1 modulator: -0.2%; TRPML1 ag: -0.5; ClpP mod: -0.6%

How did CCc1ccc(CNC(=O)Cc2c(C(=O)O)c(C)cn2C)cc1 do in these assays?
TRPML1 blocker: 1.1; PINK1 modulator: 1.6%; TRPML1 ag: -0.8; ClpP mod: 0.3%

How did COc1ccc(NC(=O)Nc2c[nH]c(=O)[nH]c2=O)cc1 do in these assays?
Menin MLL FP FL: 5.5; TRPV1 PAM: 5.1; TRPML1 blocker: -13.2; Sfp PPTase inh: 3.1%; PINK1 modulator: -1.6%; TRPML1 ag: -0.1

How did CCCC(=O)C1=C(N(C)c2ccccc2)CC(C)(C)C(C(=O)OC)C1=O (configuration not stated) do in these assays?
Menin MLL FP FL: 4.8; TRPV1 PAM: -0.5; TRPML1 blocker: -25.8; Sfp PPTase inh: 9.6%; PINK1 modulator: 0.7%; TRPML1 ag: 0.3; ClpP mod: -2.5%

What do the screens show for `COc1ccc(C)cc1NC(=O)N1CCN(c2nnc(C)c3c(C)n(-c4ccccc4)nc23)CC1`?
TRPML1 blocker: -19.0; PINK1 modulator: 28.2µM*; TRPML1 ag: 1.1; ClpP mod: -0.2%

What do the screens show for `Cc1cccc(N2CCN(C(=O)Cn3nc(C)n4cccc4c3=O)CC2C)c1` (configuration not stated)?
Menin MLL FP FL: -5.2; TRPV1 PAM: -45.6; TRPML1 blocker: 10.7&-12.7; Sfp PPTase inh: 6.8%; PINK1 modulator: 0.1%&0.2%; TRPML1 ag: -0.2&-0.5; ClpP mod: 1.3%&-0.9%

Results for O=C(c1cccc(N2CCNC2=O)c1)N1CCCC(Nc2cccc(F)c2)C1 (configuration not stated) ?
TRPV1 PAM: 0.1; TRPML1 blocker: -2.8; Sfp PPTase inh: 15.5%; PINK1 modulator: -3.8%; TRPML1 ag: -0.1; ClpP mod: 1.8%

What do the screens show for `O=C1/C(=C/c2ccccc2Cl)SC(=S)N1CCC(=O)N1CCCCC1CCO` (configuration not stated)?
Menin MLL FP FL: 2.2; TRPV1 PAM: 3.1; TRPML1 blocker: 10.4; Sfp PPTase inh: -19.1%; PINK1 modulator: 2.2%; TRPML1 ag: 2.3; ClpP mod: -2.1%

Source: PubChem BioAssay
